Source: PubChem (ICCB-Longwood Screening Facility, Harvard Medical School)
Sa helicase inh: blocks Staphylococcus aureus DNA helicase; purified S. aureus helicase, fluorescence unwinding assay; about half of the hits fall short of the stated cut; inhibition, %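 (tested at about 80 µM)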; actives 0.05% (n = 120,000); AID 485395;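 active = both duplicates at 50% or more, or one of them with a favoured structure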;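 also: 0% = mean of negative control wells and 100% = mean of positive control wells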
MgrA DNA FP: alters Staphylococcus aureus MgrA binding to DNA; inhibition, %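 (about 10 µg/mL by stock and volumes)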; fluorescence polarization; actives 0.13% (n = 84,000); AID 602314;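 active = above 50% in either of two replicates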;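 also: 0% = protein plus DNA without compound and 100% = DNA alone without protein; higher means less MgrA bound to DNA so lower polarization; one replicate is shown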
Numbers without * were called inactive; / = no result given; & = joins results of further samples. The list is partial; rates above refer to the full screens.

#1 O=C(COc1ccccc1)c1ccc(O)c(O)c1O
#2 COc1ccc(NC(=O)CSc2nc3ccccc3o2)cc1OC
#3 C=CCSc1ncnc2c1sc1nc(CC)c3c(c12)CCCC3
#4 OCC(CO)(CO)NCC(O)CN1c2ccccc2Sc2ccccc21 (stereo unspecified)
#5 CC1(C)CC(=O)c2cc(C(=O)O)c(=O)n(-c3ccccc3)c2C1
#6 O=C(O)COCC(=O)Nc1ccc(Oc2cccc(C(F)(F)F)c2)nc1
Screen / compound no.	1	2	3	4	5	6
Sa helicase inh	22	/	-9	5	8	/
MgrA DNA FP	/	-0.6	1.1	/	-0.5	-2.5

#7 O=C(O)CCc1nc2ccccc2[nH]c1=O
#8 C#CCOC(=O)Nc1ccc(Cl)c(Cl)c1
#9 Cc1c(N=c2scc(-c3ccccc3)n2-c2ccccc2)c(=O)n(-c2ccccc2)n1C
#10 O=C1/C(=C\c2ccccc2)Sc2ccccc21
#11 Cc1cccn2cc(CSc3nnc(-c4nn(Cc5ccccc5)c(=O)c5ccccc45)o3)nc12
#12 O=C1CN(C(=O)c2ccc3c(c2)S(=O)(=O)c2ccccc2C3=O)c2ccccc2N1
Screen / compound no.	7	8	9	10	11	12
Sa helicase inh	-3	-6	6	/	10	-4
MgrA DNA FP	-2.6&3.1	/	-0.1	-1.4	/	/

#13 CCOC(=O)C1CCN(C(=O)c2cc3c(C)cc(C)cc3[nH]2)CC1
#14 COc1cccc2cc(C(=O)NCCc3c(C)[nH]c4c(C)cccc34)c(=O)oc12
#15 Nc1cc(=O)nc(SCC(=O)NCc2ccccc2)n1CCc1ccccc1
#16 CSc1sc(C(=O)NCC2CC2)c(-c2cccs2)c1C#N
#17 Cc1nc2c3ccccc3n3c(CCCC(=O)N4CCC(C(N)=O)CC4)nnc3n2n1
#18 CSC1=N/C(=C\c2ccc(Br)cc2)C(=O)S1
Screen / compound no.	13	14	15	16	17	18
Sa helicase inh	/	-19	15	/	3	8
MgrA DNA FP	-2.0	/	/	-0.1	/	2.7

#19 CC(=O)Nc1cccc2c1C(=O)NC2=O
#20 NC(CC(=O)O)c1ccccc1C(F)(F)F (stereo unspecified)
#21 C=CCN1C(=O)C(CC(=O)NCC(=O)O)SC1=Nc1ccc(Cl)cc1 (stereo unspecified)
#22 C=CCNC(=O)c1ccc(-c2cc(C(F)(F)F)ccc2Cl)o1
#23 Cc1ccc2nc3sc(C(=O)O)c(N)c3cc2c1
#24 C/C=C1\C2C=C(C)CC1(N)c1ccc(=O)[nH]c1C2 (stereo unspecified)
Screen / compound no.	19	20	21	22	23	24
Sa helicase inh	30	-17	-5	3	4	/
MgrA DNA FP	/	0.6	/	0.1	4.0	-0.2

#25 CC(Cl)(Cl)/C(O)=C(\C#N)c1nnc2n1CCCCC2
#26 COC(=O)c1ccc(NCC(=O)Nc2cc(C)cc(C)c2)cc1
#27 C=CCSc1ncccc1C(=O)O
#28 CSc1ccccc1C(=O)OCC(=O)NC1CC1
#29 Cc1cccc2cc(C(c3nnnn3C(C)(C)C)N(Cc3ccccc3)Cc3ccco3)c(=O)[nH]c12 (stereo unspecified)
#30 CCOC(=O)c1cnn(CCOC(=O)c2cccs2)c1NC(=O)c1cccs1
Screen / compound no.	25	26	27	28	29	30
Sa helicase inh	-14	-16	/	15	14	15
MgrA DNA FP	-1.4	-0.8	-0.2	/	-2.2	-1.8

#31 Cn1nnnc1SCCC(=O)Nc1ccccc1
#32 Cc1cn(COCCO)c(=O)[nH]c1=O
#33 CCOC(=O)NC(=O)Cn1nnc(-c2cccc(C(F)(F)F)c2)n1
#34 Cc1ccc(-c2nnc(Nc3ccc(S(N)(=O)=O)cc3)c3ccccc23)cc1S(=O)(=O)N1CCN(C)CC1
#35 O=C(O)c1ccc(N=Cc2cccn2-c2ccc(Br)cc2)cc1
#36 CC(NC(=O)COc1ccc(F)cc1Cl)C1CCCO1 (stereo unspecified)
Screen / compound no.	31	32	33	34	35	36
Sa helicase inh	2	-1	9	-24	-11	-1
MgrA DNA FP	1.7	/	/	/	/	-1.5

#37 N#Cc1ccc(NC(=O)c2cccs2)cc1
#38 O=C1c2ccccc2C(=O)N1CC1c2ccccc2CCN1S(=O)(=O)c1cnc[nH]1 (stereo unspecified)
#39 CCCN1C(=O)/C(=c2\sc3nc(=O)c(-c4ccccc4)nn3c2=O)c2ccccc21
#40 O=C(OCc1ccco1)c1sc2sccc2c1Cl
#41 Oc1ccccc1C(Nc1ccccn1)c1ccc2cccnc2c1O (stereo unspecified)
#42 CS(=O)(=O)c1cccc(S(=O)(=O)Nc2cccc(C(F)(F)F)c2)c1
Screen / compound no.	37	38	39	40	41	42
Sa helicase inh	-7	11	3	/	1	1
MgrA DNA FP	/	/	2.5	0.9	5.8	1.5

#43 CC(C)C(C(=O)O)N1C(=O)c2ccccc2C1=O (stereo unspecified)
#44 CC(COc1ccc(C(C)C)cc1)NC(=O)c1ccc(Br)o1 (stereo unspecified)
#45 O=C(Cc1ccccc1)Nc1cccc(-c2nc3ncccc3o2)c1
#46 O=c1[nH]nc(-c2ccccc2)[nH]1
#47 CCOc1ccc(-c2nc(CN3CCCCC3)cs2)cc1
#48 Cc1cccc(-n2c(Cc3cc(=O)[nH]c(=O)[nH]3)nnc2SCC(=O)NC2CCCC2)c1
Screen / compound no.	43	44	45	46	47	48
Sa helicase inh	-6	10	11	/	-6	1
MgrA DNA FP	1.6	/	/	-1.6	/	/

#49 CNc1nc(-c2c[nH]c3ccc(F)cc23)cs1
#50 COC(=O)c1c2c(nc3ccccc13)CCCCC2
#51 O=C(O)CSc1c2c(nc3cc(C(=O)NCc4cccs4)ccc13)CCCC2
#52 CSc1nnc(CNC(=O)C2CCCC2)n1C
#53 Cc1ccc(-n2cc(-c3ccc4c(c3)OCO4)[nH]c2=S)c(C)c1
#54 N#Cc1cccc(C(c2nnnn2Cc2ccccc2)N2CCCC2)c1 (stereo unspecified)
Screen / compound no.	49	50	51	52	53	54
Sa helicase inh	5	6	17	-5	2	-12
MgrA DNA FP	-2.8	/	-0.8	-1.6	1.6	-1.1

#55 FC(F)(F)c1cnc(-c2cnoc2)c(Cl)c1
#56 Cc1cc(C)c2c(n1)nn1c(C)c(CCC(=O)Nc3ccc4c(c3)OCO4)c(C)nc21
#57 Cc1ccc(-n2c(=O)c3oc4ccccc4c3n(CC(=O)NC(C)(C)C)c2=O)cc1
#58 Fc1cc(F)c2nc(N3CCOCC3)sc2c1
#59 COC(CNC(=O)c1cc(Sc2nnc(C)s2)nc2ccccc12)OC
#60 CC(C)N=Cc1ccc(-c2ccccc2)cc1
Screen / compound no.	55	56	57	58	59	60
Sa helicase inh	/	-2	5	10	-6	/
MgrA DNA FP	0.5	/	/	/	0.3	-0.2

#61 Cn1c(SCc2cccc(-c3noc(-c4ccc(Cl)cc4)n3)c2)nnc1C(F)(F)F
#62 c1ccc(Cc2nnc(-c3ccccc3)o2)cc1
#63 O=C(Cn1ncc(Cl)c(Cl)c1=O)NCc1ccccc1
#64 Cc1cccc(C(=O)N2CCN(c3ccc(C(F)(F)F)cn3)CC2)c1C
#65 COc1ccc(Oc2cc(C)nc3ccccc23)cc1
#66 CC(C)C1C(C#N)=C(N)Oc2nc(SCc3ccccc3)[nH]c(=O)c21 (stereo unspecified)
Screen / compound no.	61	62	63	64	65	66
Sa helicase inh	25	41	9	-6	/	20
MgrA DNA FP	/	/	/	/	-2.2	/

Record cards, as listed above:
C=CCSc1ncnc2c1sc1nc(CC)c3c(c12)CCCC3 as listed: Sa helicase inh: -9; MgrA DNA FP: 1.1
Fc1cc(F)c2nc(N3CCOCC3)sc2c1 as listed: Sa helicase inh: 10; MgrA DNA FP: /

Next section.
#67 Cc1nn(-c2ccccc2)c(C)c1CCC(=O)O
#68 NC(c1ccccc1)C(F)(F)C(=O)O (stereo unspecified)
#69 O=C1NC(c2cccc(F)c2)c2c1n[nH]c2-c1cccs1 (stereo unspecified)
#70 COC(=O)C1=CN(N(C(C)=O)C(C)=O)C(=O)CC1
#71 CN(C)CC(O)COC(c1ccccc1)c1ccccc1 (stereo unspecified)
#72 CC1CCC/C(=C/Nc2ccccc2C(=O)O)C1=O (stereo unspecified)
Screen / compound no.	67	68	69	70	71	72
Sa helicase inh	-21	-6	-24	34	12	27
MgrA DNA FP	/	/	/	/	/	/

#73 Clc1ccc(CSCc2nc(-c3ccsc3)no2)cc1
#74 O=C(CCCc1ccccc1)NC1CCCC1
#75 CCOC(=O)C1=C(O)CCN(C)C1
#76 O=C(N1CCOCC1)C12CC3CCC(CC(C3)C1)C2
#77 Cc1onc(-c2c(F)cccc2Cl)c1C(=O)N(C)CCc1ccccn1
#78 O=c1c(Cl)c(NCc2ccccn2)cnn1C12CC3CC(CC(C3)C1)C2
Screen / compound no.	73	74	75	76	77	78
Sa helicase inh	/	1	7	8	/	-23
MgrA DNA FP	0.9	-1.2	1.9	-2.2	-1.6	/

#79 O=C(O)C1Cc2c([nH]c3ccccc23)C(c2ccccc2O)N1 (stereo unspecified)
#80 COc1cccc(OC)c1C(=O)Nc1ccc(Br)cc1C
#81 CC1SCC(=O)N(c2ccc(F)cc2F)C1=O (stereo unspecified)
#82 Cc1ccc(Nc2nc3ccccc3s2)cc1Cl
#83 C=CCSc1n[nH]c(-c2ccccc2)n1
#84 Cc1cccc(-c2noc(CN(C(=O)/C=C/c3ccccc3Cl)C(C)C)n2)c1
Screen / compound no.	79	80	81	82	83	84
Sa helicase inh	/	10	/	/	/	11
MgrA DNA FP	-1.1	/	-0.1	1.3	-1.4	0.8

Two records drawn at random from the list so far:
#80 COc1cccc(OC)c1C(=O)Nc1ccc(Br)cc1C
#82 Cc1ccc(Nc2nc3ccccc3s2)cc1Cl
Screen / compound no.	80	82
Sa helicase inh	10	/
MgrA DNA FP	/	1.3

Next section
#85 Cc1c(NC(=S)N2CCN(c3ccc(F)cc3)CC2)c(=O)n(-c2ccccc2)n1C
#86 Cc1cccc(-c2nc3sc(C)cc3c(=O)o2)c1
#87 CC1(C)C2CC1[C@](C)(O)[C@H](O)C2 (stereo partly specified)
#88 COc1ccc(N2C(=O)NC(=O)/C(=C/c3c(OC)ccc4ccccc34)C2=O)cc1
#89 CCOc1ccc(/C=C2/SC(=S)N(CN3CCOCC3)C2=O)cc1
#90 OC12CCCCC1C(c1ccc(Cl)cc1Cl)NCC2 (stereo unspecified)
Screen / compound no.	85	86	87	88	89	90
Sa helicase inh	13	6	-13	/	/	-13
MgrA DNA FP	-2.2	0.7	/	10	3.0	1.4

#91 Cc1cccn2cc(CSc3nc4ccccc4o3)nc12
#92 Nc1ccc2c(c1)C(=O)N(CCC(=O)O)C2=O
#93 CCOC(=O)c1ccc(N2COc3ccc4c5c(c(=O)oc4c3C2)CCC5)cc1
#94 CC(C)C1C(=O)Nc2ccc(S(=O)(=O)NCc3ccccc3)cc21 (stereo unspecified)
#95 Cc1ccccc1NC1CC(C)Nc2c(C)cccc21 (stereo unspecified)
#96 CCN1CCN(CCNC(=O)C2CCC(Cn3c(=S)[nH]c4ccccc4c3=O)CC2)CC1 (stereo unspecified)
Screen / compound no.	91	92	93	94	95	96
Sa helicase inh	-3	21	24	7	10	2
MgrA DNA FP	/	/	/	/	1.3	/

#97 Cc1cccc(OCCBr)c1
#98 Cc1cc2ccccn2c1C(=O)c1nc(N2CCN(c3ccc(F)cc3)CC2)ncc1Cl
#99 COc1ccc(C/C(C)=N/NC(=O)c2cccs2)cc1
#100 CC(C)(C)C(Cc1ccccc1)C(=O)O (stereo unspecified)
#101 CCOC(=O)C1CCN(C(=O)CSc2ccc(Cl)cc2)CC1
#102 CC(=O)NCC(=O)N1CCN(Cc2ccc3c(c2)OCO3)CC1
Screen / compound no.	97	98	99	100	101	102
Sa helicase inh	-9	-9	-15	/	18	13
MgrA DNA FP	-0.7	/	/	-0.8	1.0	/

#103 CC(=O)N1CCc2cc3nc(C)cc(C)c3cc21
#104 CCC1(C)OC(=O)N(CCc2c(C)[nH]c3ccccc23)C1(C)O (stereo unspecified)
#105 COc1ccc(C(=O)N2C(=O)N(c3ccccc3)C3(C)CC2c2ccccc2O3)cc1 (stereo unspecified)
#106 CC(Nc1ccccn1)C(=O)N1CCN(Cc2ccccc2)CC1 (stereo unspecified)
#107 CC(C(=O)NCc1ccc(Cl)cc1)n1cccc1C(=O)c1ccccc1 (stereo unspecified)
#108 CCOC(=O)c1nn(-c2ccccc2)c(N=Nc2ccc3c(c2)OCO3)c1O
Screen / compound no.	103	104	105	106	107	108
Sa helicase inh	22	-14	21	/	11	-2
MgrA DNA FP	-1.0	1.2	/	-3.8	0.8	/

#109 CCN(CC)CCn1cnc2ccccc21
#110 CN(C)CCNc1ncnc2ccccc12
#111 CCN(CC)CCN1C(=O)c2ccccc2NC1c1cc(OC)c(OC)c(OC)c1 (stereo unspecified)
#112 O=S(=O)(c1ccc2c(c1)OCCO2)N1CC=C(c2ccccc2)CC1
Screen / compound no.	109	110	111	112
Sa helicase inh	8	15	/	/
MgrA DNA FP	-2.4	1.9	-1.2	-3.0
